EPAC1 agonist – validation of human EPAC1 agonists; O95398; EPAC1 Rap1b BODIPY-GDP exchange, fluorescence; Potency, µM, without a hit: max response, positive = active, usual class: activators; 1% of 16,000 active; active = well fitted activation curve with a large enough effect; inconclusive = small, poorly fitted or top-dose-only effect; inactive = no such curve, though single readings can be large or run the other way;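 also: nearly all actives have a fitted effect of over 70% in size; series mostly up to about 76 or 150 µM; scaled to a cAMP control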
Target sequence (O95398 whole entry, looked up): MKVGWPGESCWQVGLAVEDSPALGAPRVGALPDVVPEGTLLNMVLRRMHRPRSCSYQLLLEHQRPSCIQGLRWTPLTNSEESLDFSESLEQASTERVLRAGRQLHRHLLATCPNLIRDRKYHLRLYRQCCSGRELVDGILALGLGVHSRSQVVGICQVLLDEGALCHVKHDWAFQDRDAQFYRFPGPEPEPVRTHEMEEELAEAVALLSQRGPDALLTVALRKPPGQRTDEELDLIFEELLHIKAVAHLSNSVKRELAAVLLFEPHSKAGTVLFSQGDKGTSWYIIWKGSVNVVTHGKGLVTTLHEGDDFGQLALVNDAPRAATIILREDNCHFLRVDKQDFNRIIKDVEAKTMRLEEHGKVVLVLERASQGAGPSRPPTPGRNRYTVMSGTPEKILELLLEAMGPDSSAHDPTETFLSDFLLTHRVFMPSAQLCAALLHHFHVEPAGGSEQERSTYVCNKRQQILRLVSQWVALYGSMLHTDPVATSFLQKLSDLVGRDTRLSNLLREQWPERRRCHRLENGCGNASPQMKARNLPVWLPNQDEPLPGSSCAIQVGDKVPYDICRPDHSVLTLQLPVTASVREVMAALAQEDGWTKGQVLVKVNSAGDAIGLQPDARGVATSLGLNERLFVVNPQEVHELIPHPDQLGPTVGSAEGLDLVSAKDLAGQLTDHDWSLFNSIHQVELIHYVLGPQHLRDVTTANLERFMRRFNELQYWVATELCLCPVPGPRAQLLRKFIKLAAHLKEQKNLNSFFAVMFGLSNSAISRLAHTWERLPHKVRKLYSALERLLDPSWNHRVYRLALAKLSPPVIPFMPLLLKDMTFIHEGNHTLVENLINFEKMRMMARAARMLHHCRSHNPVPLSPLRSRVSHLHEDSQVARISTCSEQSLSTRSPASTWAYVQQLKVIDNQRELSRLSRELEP
Numbers without * were called inactive; ? = inconclusive; & = joins results of further samples; [ ] = dose if it differs, or a comment. % is scaled to controls: 0 for no effect and ±100 for the full control effect; potency is read from the fitted curve at half-maximal effect. The list is partial; count on the stated rates, not on these rows.

SMILES	EPAC1 agonist
Cc1ccc2c(c1)CN(CCNC(=O)c1n[nH]c3c1CCCC3)CC(C)O2 (stereo unspecified)	18%
CN(C)C(=O)OC1=C(c2ccccc2)Sc2ccccc2-n2cccc21	14%
CCCCN1CC[C@H]2C=CC[C@@H](C(=O)Nc3ccccc3)[C@H]2C1=O	?
CC(C)C[C@H](NC(=O)C1OC1C(=O)O)C(=O)NCCCCN=C(N)N (stereo partly specified)	-3%
O=C(c1cc(C(F)(F)F)cc(C(F)(F)F)c1)N1CCC2(CCCN(c3ccccc3)C2)CC1	14%
CC(=O)C[C@H]1c2cc(C(F)(F)F)ccc2S(=O)(=O)N1c1ccc(N(C)C)cc1	-14%
C[N+](C)(C)CC=O	1%
O=C(c1cnn(-c2nccc(-c3ccccc3C(F)(F)F)n2)c1C1CC1)N1CCN(CCO)CC1	-2%
CCC(CC)(CC(=O)Nc1cccc(/C=C/c2nc(C3CCC3)cs2)c1)C(=O)O	-23%
Cl/C(=C\n1cncn1)c1ccc(Cl)cc1Cl	-19%
c1cn(-c2ccnc(-c3ccc4c(c3)OCO4)n2)cn1	-39%[inhibitor]
CNC(=O)[C@@H]1C[C@@H](NCc2cccc(Oc3ccccc3)c2)CN1C(C)C	-17%
CC[n+]1c(/C=C/C=C2/N(C)c3ccccc3C2(C)C)sc2ccccc21	?
COc1ccc(CNC(=O)C[C@H]2C(=O)N(Cc3ccc(OC)cc3)C[C@@H]2Cc2ccccc2)cc1	2%
Nc1cccc(/C=C/c2ccnc3ccccc23)c1	24%
Cc1cnc(C)c(-c2cc(F)cc3c2OC(CNC(=O)Cc2ccccc2C)C3)n1 (stereo unspecified)	1%
CCOC(=O)[C@H](CCc1ccccc1)N[C@H]1CCCN2CCC[C@@H](C(=O)O)N2C1=O	-10%
CN1CCN(c2ncc3nc(-c4ccc(Cl)cc4)c(=O)n(Cc4ccc(F)cc4)c3n2)CC1	-24%
CCn1nc(C)cc1C(=O)NCCN1Cc2ccccc2OC(c2ccccc2F)C1 (stereo unspecified)	1%
Oc1c(Br)cc(Br)c2cccnc12	14%
Cc1nc2cnc(Nc3ccccc3)nc2n(C2CC2)c1=O	-25%
CC[C@]12CCCN3CCc4c(n(c5ccccc45)C(=O)C1)[C@H]32	3%
COC(=O)C[C@H]1c2cc(C(F)(F)F)ccc2S(=O)(=O)N1Cc1ccccc1	12%
COc1cccc(C(=O)NCc2nc(-c3cccc(NC(=O)c4ccoc4C)c3)oc2C)c1OC	11%
N#Cc1cccc(-c2nc(N3CCNCC3)c3ccccc3n2)c1	25%

Laid out differently: results already given.
molecule,EPAC1 agonist
c1cn(-c2ccnc(-c3ccc4c(c3)OCO4)n2)cn1,-39%[inhibitor]
CNC(=O)[C@@H]1C[C@@H](NCc2cccc(Oc3ccccc3)c2)CN1C(C)C,-17%
CC[n+]1c(/C=C/C=C2/N(C)c3ccccc3C2(C)C)sc2ccccc21,?
COc1ccc(CNC(=O)C[C@H]2C(=O)N(Cc3ccc(OC)cc3)C[C@@H]2Cc2ccccc2)cc1,2%
Nc1cccc(/C=C/c2ccnc3ccccc23)c1,24%
Cc1cnc(C)c(-c2cc(F)cc3c2OC(CNC(=O)Cc2ccccc2C)C3)n1 (stereo unspecified),1%
CCOC(=O)[C@H](CCc1ccccc1)N[C@H]1CCCN2CCC[C@@H](C(=O)O)N2C1=O,-10%
CN1CCN(c2ncc3nc(-c4ccc(Cl)cc4)c(=O)n(Cc4ccc(F)cc4)c3n2)CC1,-24%
CCn1nc(C)cc1C(=O)NCCN1Cc2ccccc2OC(c2ccccc2F)C1 (stereo unspecified),1%
Oc1c(Br)cc(Br)c2cccnc12,14%
Cc1nc2cnc(Nc3ccccc3)nc2n(C2CC2)c1=O,-25%
CC[C@]12CCCN3CCc4c(n(c5ccccc45)C(=O)C1)[C@H]32,3%
COC(=O)C[C@H]1c2cc(C(F)(F)F)ccc2S(=O)(=O)N1Cc1ccccc1,12%
COc1cccc(C(=O)NCc2nc(-c3cccc(NC(=O)c4ccoc4C)c3)oc2C)c1OC,11%
N#Cc1cccc(-c2nc(N3CCNCC3)c3ccccc3n2)c1,25%

Continuation:
SMILES	EPAC1 agonist
COC(=O)[C@@H](N)CS	-21%
CN(C)c1ccc(/C=C2/CCCc3c2nc2ccccc2c3C(=O)O)cc1	2%
COC(=O)[C@H]1Cc2c([nH]c3ccccc23)CN1C(=O)COc1ccc2c(C)cc(=O)oc2c1	-22%
COCC(=O)N1CCC2(CCCN(C(=O)Nc3ccccc3)C2)CC1	-45%[inhibitor]
C[C@@](N)(Cc1ccc(O)cc1)C(=O)O	14%
Cc1cc(NS(=O)(=O)c2ccc(N)cc2)no1	-12%&-25%
C[C@@]1(C(=O)O)NCCc2cc(O)c(O)cc21	-15%
CN1CCCC(CC2c3ccccc3Sc3ccccc32)C1 (stereo unspecified)	-4%
COc1ccc(CNc2nc(-c3ccc4c(c3)OCO4)nc3ccccc23)c(OC)c1	112µM*
COc1cccc(Nc2ncc3nc(-c4cccs4)c(=O)n(-c4ccccc4)c3n2)c1	112µM*
N#C/C(=C\c1ccc(O)c(O)c1)C(=O)c1ccc(O)c(O)c1	-7%
O=c1c(-c2ccccc2)nc2cncnc2n1Cc1ccccc1	5%
Cc1ccnc2ccc(Br)cc12	?
COc1ccccc1CNc1ccnc(-c2cccc(C#N)c2)n1	5%
CC(CCC(=O)O)C1CCC2C3C(O)C[C@@H]4CC(O)CC[C@@]4(C)C3CC(O)[C@]12C (stereo partly specified)	-31%[inhibitor]
CCCCCCCCCCCCCCCC(=O)C1=C(O)C(CO)OC1=O (stereo unspecified)	-2%
Oc1cc2c(cc1O)[C@H](c1ccccc1)CNCC2	1%
COc1cc(CN2CCC3(CC2)CC3C(=O)Nc2ccc3sc(C)nc3c2)ccc1F (stereo unspecified)	-6%
N#Cc1ccc(CN2CC[C@@]3(CCCN(C(=O)c4cnccn4)C3)C2)cc1	-36%[inhibitor]
COc1cccc(-c2ccc3ncnc(N(C)C)c3c2)c1	1%
CC(C)(C)NC(=O)[C@@H]1C[C@@H]2CCCC[C@@H]2CN1C[C@@H](O)[C@H](Cc1ccccc1)NC(=O)[C@H](CC(N)=O)NC(=O)c1ccc2ccccc2n1	-43%[inhibitor]
COc1ccccc1CNc1ccnc(-c2ccccc2CN(C)C)n1	-24%
COCCn1c(=O)c(C)nc2cnc(OC)nc21	-22%
Cc1c(C(=O)NN2CCOCC2)nn(-c2ccc(Cl)cc2Cl)c1-c1ccc(I)cc1	-12%
COCCN1CCN(C(=O)c2cnn(-c3nccc(-c4ccco4)n3)c2C2CC2)CC1	-7%

Another view of 2 compounds above.
compound | EPAC1 agonist
COc1ccccc1CNc1ccnc(-c2ccccc2CN(C)C)n1 | -24%
COCCn1c(=O)c(C)nc2cnc(OC)nc21 | -22%

(list continues)
SMILES	EPAC1 agonist
CN1CCN(c2c(F)cc3c(=O)c(C(=O)O)cn(CCF)c3c2F)CC1	-29%
COC(=O)N1CCC2(CC1)CCN(c1ccccn1)CC2	6%
CCOC(=O)N1CCN(Cc2ccc3c(c2)CN(C(=O)c2ccc4ncccc4c2)CCO3)CC1	1%
COc1cc(NS(C)(=O)=O)ccc1Cc1c2ccccc2nc2ccccc12	-124%[inhibitor]
NC(N)=NCCNS(=O)(=O)c1cccc2cnccc12	2%
CC(=O)Oc1cc(C)c(OC(C)=O)c2ccccc12	0%
Cc1ccc(NC(=O)c2cccc(N(C)C)c2)cc1NC(=O)c1ccc(O)cc1	-10%&-5%&14%
CSc1nc(C(=O)NCc2nc(-c3cccc(NC(=O)c4ccccn4)c3)oc2C)cs1	1%
c1ccc2c(c1)sc[n+]2CCC1CCCCC1	-31%[inhibitor]
COc1cc(-c2cnc3ccccc3c2)cc2c1OCCN(C(=O)CCC(=O)c1ccc(F)cc1)C2	2%
O=C(c1ccco1)N1CCC[C@@]2(CCN(c3ccncc3)C2)C1	-6%
C/C=C(\C)C(=O)O[C@H]1C[C@@]2(C)CCC(C(C)C)C2(O)CC[C@@]1(C)O (stereo partly specified)	-28%
Cc1ncsc1CCC(=O)N1CCCC(c2nc(-c3ccncc3)ncc2-c2ccccc2)C1 (stereo unspecified)	-3%
O=c1c(CCc2ccccc2)nc2cnc(N3CCNCC3)nc2n1CCc1ccccc1	-54%[inhibitor]
CC#CCC(C)[C@H](O)/C=C/[C@@H]1[C@H]2c3cccc(CCCC(=O)O)c3O[C@H]2C[C@H]1O (stereo partly specified)	15%
CS(=O)(=O)N1CCC2(CCCN(c3cccc(-c4ccccc4)c3)C2)CC1	?
O=C(NCC1CCC2(CCN(Cc3ccccc3O)CC2)O1)C1CCCO1 (stereo unspecified)	-6%
COc1ccccc1-c1nc(NC2CC2)c2ccccc2n1	-65%[inhibitor]
CCC(O)c1ccccc1 (stereo unspecified)	-24%
CCNc1ncc2nc(-c3ccc(Cl)cc3)c(=O)n(C[C@H]3CCCO3)c2n1	-1%
COc1cccc(CNc2ccc3nc(-c4ccc(N)cc4)c(OC)n3n2)c1	16%&8%
COCC(=O)N1CCC2(CC1)CN(C(=O)Nc1ccccc1)C2	-42%[inhibitor]
O=C1NC(CC(=O)N2CCC(n3c(C4CCC4)nc4cccnc43)CC2)c2ccccc21 (stereo unspecified)	3%
COc1ccc(C(=O)N2CCC3(CC2)CCN(c2cccc(-c4ccccc4)c2)CC3)cc1	-15%
COc1cccc(-c2nc(N(C)Cc3ccco3)c3ccccc3n2)c1	?
The results go on.
SMILES	EPAC1 agonist
CCc1cc(C(=O)NCC2Cc3cccc(-c4ccc(C(=O)OC)cn4)c3O2)no1 (stereo unspecified)	-17%
COc1ccc2ccccc2c1CN1CCC2(CCC(CNC(=O)c3ccccc3)O2)CC1 (stereo unspecified)	-15%
Cn1c(=O)c(-c2ccc(F)cc2)nc2cnc(OCc3ccccc3)nc21	13%
O=S1(=O)[C@H]2C[C@@H]3C=C[C@@]2(CN1Cc1cccc(F)c1)O3	?
CCC1CN(CCC(=O)N2CCCN(C(=O)c3ccco3)CC2)Cc2cc(OC)ccc2O1 (stereo unspecified)	0%
Cc1cc(-c2ccc(N=Nc3ccc4c(S(=O)(=O)O)cc(S(=O)(=O)O)c(N)c4c3O)c(C)c2)ccc1N=Nc1ccc2c(S(=O)(=O)O)cc(S(=O)(=O)O)c(N)c2c1O	-10%&-20%&1%
CN(Cc1ccco1)c1nc(-c2ccoc2)nc2ccccc12	?
CC(C)(C)c1ccc(C(=O)N2CCC3(CC2)CC3C(=O)NCCc2ccccn2)cc1 (stereo unspecified)	-6%
N#Cc1ccc(CN2CC[C@@]3(CCCN(S(=O)(=O)c4ccccc4)C3)C2)cc1	25%
CCN(CC)CCCCCCCCOC(=O)c1cc(OC)c(OC)c(OC)c1	-5%&-12%&-8%
COc1ccc(/C=C/c2cc(O)cc(O[C@H]3OC(CO)C(O)C(O)C3O)c2)cc1 (stereo partly specified)	-24%
O=C(Nc1cccc(N2CCC(NCc3cnn(-c4ccccc4)n3)CC2)c1)c1cccnc1	-3%
CN(C)C(=O)c1ccc(-c2ccc3ncnc(N4CCNCC4)c3c2)cc1	-39%[inhibitor]
CC(=O)N1CCC2(CCCN(c3ccccc3)C2)CC1	-23%
COCc1ccc(C(=O)N2CCOc3c(cc(-c4cc(C)c5cccc(OC)c5n4)cc3OC)C2)o1	-2%
COc1ccc(CN2[C@@H](CC(=O)O)c3cc(C(F)(F)F)ccc3S2(=O)=O)cc1	15%
c1ccc2sc(N3CCN(Cc4ccc5c(c4)OCO5)CC3)nc2c1	-2%&8%
Cc1cc2c3c(cccc3n1)C(=O)c1ccccc1-2	-11%
O=C1NC2CCCCN2C12CCN(CCCN1c3ccccc3CCc3ccc(Cl)cc31)CC2 (stereo unspecified)	20%
CCCN1CCC(=O)N([C@H](CO)c2ccccc2)CC1	12%
CC[C@@H](C)CCCCC(=O)N[C@@H](CCNCS(=O)(=O)O)C(=O)N[C@H](C(=O)N[C@@H](CCNCS(=O)(=O)O)C(=O)N[C@H]1CCNC(=O)[C@H]([C@@H](C)O)NC(=O)[C@H](CCNCS(=O)(=O)O)NC(=O)[C@H](CCNCS(=O)(=O)O)NC(=O)[C@H](CC(C)C)NC(=O)[C@@H](CC(C)C)NC(=O)[C@H](CCNCS(=O)(=O)O)NC1=O)[C@@H](C)O	-14%
COc1ccc(-n2c(=O)c(-c3cccc(C#N)c3)nc3cnc(N4CCNCC4)nc32)cc1	-40%[inhibitor]
OC[C@@H]1O[C@@H](n2cnc3c(NC4CCCC4)ncnc32)[C@H](O)[C@H]1O	-2%
CC(C)OC(=O)c1cc(C(=O)OC(C)C)cc([N+](=O)[O-])c1	9%
C=CC(C)(O)CCC=C(C)C (stereo unspecified)	7%
Carrying on.
SMILES	EPAC1 agonist
COCCNc1ncnc2ccc(-c3ccccc3C(F)(F)F)cc12	-30%[inhibitor]
COc1ccc(CN2CCCC(n3cc(C(=O)N4CCCCC4)nn3)C2)cc1OC (stereo unspecified)	3%
COc1cc(=O)n2c(c1C(=O)N(C)Cc1ccsc1)CCN(Cc1cnn(C)c1C)CC2	12%
COc1ncc2nc(-c3cccs3)c(=O)n(CCC#N)c2n1	-31%[inhibitor]
NCCC[C@H](N)CC(=O)N[C@H]1CNC(=O)[C@H]([C@H]2C[C@H](O)N=C(N)N2)NC(=O)C(=CNC(N)=O)NC(=O)[C@H](CO)NC(=O)[C@H](CO)NC1=O	3%
Nc1c(S(=O)(=O)O)cc(Nc2ccc(Nc3nc(Cl)nc(Nc4ccc(S(=O)(=O)O)cc4)n3)c(S(=O)(=O)O)c2)c2c1C(=O)c1ccccc1C2=O	?
NS(=O)(=O)Cc1noc2ccccc12	-19%
CCCCCCCCCCCCOCCCN	-5%
COc1ccc2c(c1)OC[C@H]1c3cc4c(cc3O[C@@H]21)OCO4	-6%
COc1ccc(-n2c(=O)c(-c3cccs3)nc3cnc(N(C)C)nc32)cc1	-6%
N#Cc1ccccc1-c1nc(NCCN2CCOCC2)c2ccccc2n1	-4%
